# Mtb growth: M. tuberculosis H37Rv growth inhibitors, H37Rv strain (AID 1626). 0.95% of 220,000 active. inhibition, % at 10 µM, or IC50 in µM where a hit was titrated. M. tuberculosis H37Rv growth inhibition; higher % means a stronger effect;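 active = confirmed in a dose series; inconclusive = inhibition above 80% but not taken into the dose series; inactive = below 80% or under 30% at every dose of the series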;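 also: bacteria incubated seven days before Alamar blue readout; 0% = bacteria only wells and 100% = bacteria with antibiotic wells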
# Arbovirus inh: antivirals against arbovirus infection, primary screen, cell-based, full library, 10K replicate subset. AID 1251, 2008. arbovirus infection cell-based antiviral screen. inhibition, % at 10 µM. 0.37% of 200,000 active;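 active = inhibition from about 30%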;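 also: bluetongue infection of BSR cells; cell survival read as ATP light after 72 h; 0% = infected wells without compound and 100% = uninfected wells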
# Mtb betalactam: beta-lactam sensitization of Mtb H37Rv, H37Rv; M. tuberculosis H37Rv growth with meropenem, percent inhibition; hits of this screen are not shown here; inhibition, % at 25 µM; 0.27% of 330,000 active; AID 434955, 2010;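 active = about 74% or more and at least 40 points above the plate without the antibiotic, then above 30% in a dose series; inconclusive = first-round hits that could not be retested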;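 also: growth measured after seven days incubation then overnight dye step; 0% = bacteria only wells and 100% = bacteria with antibiotic; twin plates without the antibiotic show which effects depend on it; some results filed as inactive read as strong as hits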
# YopH inh: YopH tyrosine phosphatase inhibitors, primary screen, biochemical, fluorescence Ex485/Em525; inhibition, %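 (about 10 µM by stock and volumes)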; YopH tyrosine phosphatase [Yersinia enterocolitica]; 0.16% of 140,000 active;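 active = inhibition of 50% or more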;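 also: controls were vehicle for no effect and minimum signal wells for full effect; inactives centre near -20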
# RecA splice inh: Mtb RecA intein splicing inhibitors, primary screen, biochemical, fluorescence, HTS. cell-free RecA intein splicing. AID 2221, 2009. inhibition, %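 (about 9 µM by stock and volumes)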. 0.75% of 290,000 active. Protein RecA (Mycobacterium tuberculosis (strain ATCC 25618 / H37Rv)), P9WHJ3; in the data active = inhibition above about 30%; inconclusive = no clear call, values can overlap the other calls;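 also: 0% = vehicle wells and 100% = reference inhibitor control wells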
# Target sequence (P9WHJ3 whole entry, looked up, canonical isoform): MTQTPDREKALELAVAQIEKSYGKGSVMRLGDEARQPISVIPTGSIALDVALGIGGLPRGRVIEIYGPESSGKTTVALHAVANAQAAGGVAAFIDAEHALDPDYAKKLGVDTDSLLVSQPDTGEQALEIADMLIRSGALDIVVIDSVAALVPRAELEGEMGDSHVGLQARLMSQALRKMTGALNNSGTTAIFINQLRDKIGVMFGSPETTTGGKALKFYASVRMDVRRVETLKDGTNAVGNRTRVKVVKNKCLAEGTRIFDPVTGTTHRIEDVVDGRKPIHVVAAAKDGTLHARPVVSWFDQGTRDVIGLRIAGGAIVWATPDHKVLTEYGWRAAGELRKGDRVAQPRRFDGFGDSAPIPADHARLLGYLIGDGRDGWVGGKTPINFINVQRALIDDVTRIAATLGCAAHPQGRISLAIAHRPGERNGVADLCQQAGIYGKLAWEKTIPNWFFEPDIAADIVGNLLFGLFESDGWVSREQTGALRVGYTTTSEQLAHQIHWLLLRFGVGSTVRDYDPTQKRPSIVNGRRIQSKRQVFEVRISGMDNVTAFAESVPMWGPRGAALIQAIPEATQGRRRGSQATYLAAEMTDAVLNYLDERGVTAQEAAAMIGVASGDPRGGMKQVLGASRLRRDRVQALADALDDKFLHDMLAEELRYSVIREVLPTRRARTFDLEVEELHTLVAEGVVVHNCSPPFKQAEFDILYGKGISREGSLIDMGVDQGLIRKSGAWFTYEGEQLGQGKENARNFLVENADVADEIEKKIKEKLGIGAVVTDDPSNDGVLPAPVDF
# Arbovirus inh repeat: second read-out of Arbovirus inh, no call of its own (marks repeat the call); inhibition, %; measured here: 10K subset replicate screen; many hits read low in the repeat;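 first of two repeat runs on a subset; 0% = infected and 100% = uninfected wells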
# * hit, by the source's call; ? = inconclusive; . = not tested or not shown.
SMILES,Mtb growth,Arbovirus inh,Mtb betalactam,YopH inh,RecA splice inh,others
CC1(C(=O)OCC(=O)NC(=O)c2ccccc2)CC1(Cl)Cl (stereo unspecified),.,.,-7.6,.,1.3,
CC(C)(C)c1ccc(S(=O)(=O)N(CCCN2CCOCC2)Cc2cccs2)cc1,6.0%,-25.0,20.8,-16.0,2.4,
Cc1c(N/N=C(\C#N)C(=O)c2ccc(Cl)cc2)c(=O)n(-c2ccccc2)n1C,?,-31.7,-1.7,-16.8,-6.8,
COc1cccc(C2c3[nH]c4ccccc4c3CCN2Cc2cnc(C)s2)c1OC (stereo unspecified),1.2%,15.0,-3.1,.,0.3,
CCCS(=O)(=O)c1ccc(COC(=O)c2cccc(NC(=O)C(C)C)c2)cc1,8.8%,3.2,1.4,.,2.1,
Cc1cc(C)cc(Nc2nc3ccc(C)cc3n3cnnc23)c1,.,.,7.0,.,-1.4,
CCOC(=O)c1cccc(NC(=O)COC)c1,8.8%,4.1,-3.9,-23.6,-0.6,
Cc1ccc2c(c1)OC(c1ccc3c(c1)OCCO3)CC2=O (stereo unspecified),.,.,9.8,.,7.8,
CCOC(=O)c1ccccc1NC(=O)CSc1nc2ccccc2n1CC(=O)N1CCCC1,-4.0%,-10.1,3.3,-37.5,0.6,
Cn1c(O)c(C(c2ccccn2)c2c(O)n(C)c(=S)n(C)c2=O)c(=O)n(C)c1=S,.,1.9,-3.7,-19.1,-4.1,
CCC1=NN(C(=O)c2ccc(Br)cc2)C(O)(c2ccccc2)C1 (stereo unspecified),58.8%,-27.7,86.2,-19.0,7.2,
Cc1nc2ccc(NC(=O)c3c(-c4ccccc4)noc3C)cc2s1,12.8%,-6.3,-11.1,-17.6,3.3,
CC(=O)C1=C(O)C(=O)N(CCc2c[nH]c3ccccc23)C1c1ccc(C)cc1 (stereo unspecified),-8.4%,-0.2,-8.6,.,1.0,
CCN(CC)C(=O)Cn1cc(C(=O)C(=O)NCCc2ccc(S(N)(=O)=O)cc2)c2ccccc21,2.7%,3.4,1.1,.,-0.6,
CC1=C(C(=O)OCCNC(=O)c2cccnc2)C(c2cccc([N+](=O)[O-])c2)C(C(=O)OCCN(C)C)=C(C)N1 (stereo unspecified),2.3%,5.8,-8.6,-32.1,-2.0,
COc1ccc(C2(CNC(=O)c3cccc([N+](=O)[O-])c3)CCCCC2)cc1OC,17.8%,7.4,-5.2,-26.0,5.7,
COc1ccc2c(C(F)(F)F)cc(=O)oc2c1C,63.9%,4.7,2.0,38.5,-0.7,
CC(C)Oc1cccc(C(=O)NC(=S)Nc2ccccc2)c1,9.2%,35.9*,12.7,-28.0,3.5,
COC(=O)CSc1nc(C2CC2)nc2ccccc12,-4.9%,0.5,6.6,-32.6,8.5,
O=C(c1ccc2c(c1)C(=O)N(Cc1ccco1)C2O)N1CCOCC1 (stereo unspecified),-7.9%,0.3,3.1,-3.8,.,Arbovirus inh repeat=-0.5
COc1cccc(CNC(=O)CCCC(=O)Nc2cccc([N+](=O)[O-])c2)c1,.,.,-2.5,.,-0.9,
Cc1nc2sc(C(c3cccs3)N3CCN(C(=O)c4ccco4)CC3)c(O)n2n1 (stereo unspecified),6.6%,-0.3,0.1,-7.0,-0.1,Arbovirus inh repeat=1.7
N#CC1=C(N)Oc2cc3ccccc3cc2C1c1cccnc1 (stereo unspecified),-3.5%,-4.6,11.6,-42.0,2.6,
C=C(C)Cn1c(SCC(=O)O)nnc1-c1ccc(OC)cc1,-5.6%,2.1,-7.8,-16.3,-1.5,
Cc1cccc(C)c1Nc1ncnc2ccccc12,.,.,-0.4,.,-0.3,
SMILES,Mtb growth,Arbovirus inh,Mtb betalactam,YopH inh,RecA splice inh,others
N#C/C(=C/c1ccc(Sc2nc3ccccc3[nH]2)o1)c1ccccc1F,4.4%,-17.7,-6.3,3.6,18.0,
C/C(N)=C(/C#N)C(=O)COC(=O)c1ccccc1C(=O)c1ccc(C)cc1,1.0%,5.6,-6.9,.,0.3,
CCN(C1CCCCC1)S(=O)(=O)c1cc(C)ccc1OC,-9.2%,-0.2,-9.5,42.0,8.0,
O=S(=O)(c1ccc2c(c1)OCCO2)N1CCC(c2nc3ccccc3[nH]2)CC1,-0.6%,-13.9,1.4,-24.2,-4.1,
CCNC(=O)C12CCC(C)(c3nc4cc(C)c(C)cc4nc31)C2(C)C (stereo unspecified),6.8%,1.6,1.9,.,1.6,
COc1ccccc1OCC(=O)Nc1cc(C(F)(F)F)ccc1-n1cncn1,.,.,-3.7,.,2.4,
CCOc1nc(-c2ccccc2)ccc1-c1noc(-c2cccs2)n1,6.0%,-12.8,9.2,-43.4,0.5,
COc1cc(-c2nnc(SCC(=O)/C(C#N)=C(\C)N)o2)cc(OC)c1OC,-2.0%,3.6,-3.4,-7.6,0.1,
O=C(CSC1CC(=O)N(c2ccc(C(=O)O)cc2)C1=O)Nc1ccc2ccccc2c1 (stereo unspecified),-4.5%,-1.6,15.5,.,0.1,
Cc1cc(NC(=O)C(=O)c2cn(C)c3ccccc23)no1,-4.0%,-5.0,-7.2,.,1.9,
O=C(Nc1cccc2ncccc12)C12CC3CC(CC(C3)C1)C2,-10.0%,4.3,43.4,-10.0,2.0,
CC(=O)Nc1ccccc1N(CC(O)Cn1c2ccccc2c2ccccc21)S(=O)(=O)c1ccc(C)cc1 (stereo unspecified),24.6%,-8.3,32.7,8.2,11.5,
O=C(CN1C(=O)CSC1=O)N1CCCCC1,-2.1%,-1.5,-13.5,-14.8,-1.5,
CS(=O)(=O)N1CCN(c2ccc(NC(=O)c3ccccc3)cc2)CC1,4.9%,2.5,-3.1,.,-1.8,
CC(NC(=O)C(c1ccccc1)c1ccccc1)c1ccc(S(N)(=O)=O)cc1 (stereo unspecified),.,.,-0.3,.,1.8,
COc1cc(/C=N/NC(=O)CCC(=O)Nc2ccc(Br)cc2)ccc1O,.,.,1.7,.,-2.7,
Cc1ccc(CNC(=O)Cn2c([N+](=O)[O-])cnc2C)cc1,-9.2%,9.2,-3.4,-38.9,1.0,
Fc1ccc(Br)cc1/C=N/N1CCN(c2ccccc2)CC1,.,.,5.8,.,11.0,
Cc1c(N/C(=N/S(=O)(=O)c2ccccc2)c2ccc(Cl)cc2)c(=O)n(-c2ccccc2)n1C,-10.2%,-9.2,2.8,-8.4,-1.3,
O=Cc1ccc(Oc2ccc(F)cc2)nc1,4.4%,4.6,-3.7,.,1.1,
c1ccc(-c2nnc3n2-c2ccccc2SC3)cc1,-0.5%,.,-1.9,.,2.4,
CC(=O)c1ccc(NC(=O)Cn2c(=O)oc3ccccc32)cc1,.,.,-5.8,.,-2.8,
CC(=O)Oc1ccc2oc3c(c2c1)C(=O)CCC3,12µM*,11.9,10.6,-33.6,-1.3,
O=C(NCc1ccc2c(c1)OCO2)C1CCCN1C(=O)Nc1ccccc1 (stereo unspecified),-6.4%,-6.3,-4.9,-37.5,-1.0,
Cc1ccc(Cl)cc1NC(=O)C1CCCN(S(C)(=O)=O)C1 (stereo unspecified),.,.,5.3,.,-4.9,
SMILES,Mtb growth,Arbovirus inh,Mtb betalactam,YopH inh,RecA splice inh,others
Cc1onc(-c2ccccc2)c1NC(=O)Nc1c(-c2ccccc2)noc1C,-0.7%,-0.5,-7.0,.,-1.1,
O=C(COc1ccc(Cl)cc1Cl)NC(=O)N1CCOCC1,-2.6%,4.3,11.7,-29.8,-1.0,
COc1ccc(C(=O)Nc2ccc(CN3CCOCC3)cc2)cc1,-7.8%,3.0,0.8,5.1,-0.3,
CCN(CC)S(=O)(=O)c1ccc(OC)c(NC(=O)CSc2ccccc2)c1,-7.0%,-7.7,-5.6,-31.1,2.9,
O=C(O)c1ccc(CNCc2ccccc2F)cc1,-2.6%,8.6,4.3,.,-1.1,
CCOCCCNC(=O)c1ccccc1Br,-1.5%,1.6,-9.8,8.3,-2.6,
CCOC(=O)c1sc(NC(=O)CSc2nnc(-c3ccco3)o2)c(C(=O)OCC)c1C,-7.3%,-8.2,0.9,1.1,-0.3,
CCCCCCCCNC(=O)CCNC(=O)c1ccc(C(C)(C)C)cc1,54.3%,-14.0,99.1,5.4,0.3,
Cn1cccc1CC(=O)N/N=C/c1cc([N+](=O)[O-])ccc1Cl,-8.8%,-5.0,-5.8,.,4.7,
COc1ccc(N2C(=O)C(CC(=O)Nc3ccccc3)N(CCc3ccc(OC)c(OC)c3)C2=O)cc1 (stereo unspecified),-1.3%,6.2,3.9,.,.,
CCOC(=O)CCCNC(=O)CCNC(=O)c1ccc(OCC(C)C)cc1,.,.,-7.5,.,-0.8,
CCOc1ccc(OCCn2c(S(=O)(=O)O)nc3c(N)ncnc32)cc1,.,.,-0.8,.,-6.7,
COc1ccc(-c2nnc(SCc3ccc(C(=O)O)cc3)n2N)cc1,-3.1%,.,-2.1,.,-2.4,
CCOc1ccc(-n2c(C)nnc2SCC(=O)N(CC)CC)cc1,-0.3%,2.3,-4.3,-5.2,-1.4,
COC(=O)C1=C(C)NC(=O)NC1c1ccc([N+](=O)[O-])o1 (stereo unspecified),2.3%,-7.4,2.4,-11.4,-8.8,
COCCN(C(=O)COC(=O)Cc1ccc(Cl)cc1Cl)c1c(N)n(Cc2ccccc2)c(=O)[nH]c1=O,.,.,7.7,.,-0.3,
Cc1ccc(NC(=O)COC(=O)/C=C/c2ccc(Br)o2)cc1S(=O)(=O)N(C)C,22.4%,11.9,63.1,.,1.2,
Cc1ccc(S(=O)(=O)N2CCC(=O)N(CCOCc3ccc(C(F)(F)F)cc3)CC2)cc1,-10.7%,5.2,-4.0,-19.7,0.0,
COc1cccc(CNC(=O)C2CCN(Cc3cnn(-c4ccccc4)c3-n3cccc3)CC2)c1,-6.6%,-11.8,63.6,12.5,0.3,
CCN1c2ccc(S(=O)(=O)N3CCOCC3)cc2N(Cc2ccc(OC)cc2)C1C (stereo unspecified),1.1%,18.4,-8.1,.,0.8,
CC(OC(=O)Cc1n[nH]c(=O)c2ccccc12)C(=O)Nc1ccc(F)cc1Cl (stereo unspecified),.,.,-8.6,.,-0.2,
Cc1cnc(C(=O)NC2CCSc3ccccc32)cn1 (stereo unspecified),.,.,-4.6,.,-9.5,
Cc1cc(OCC(=O)N2CCc3ccccc3C2)c(C)cc1Br,.,.,6.7,.,18.2,
COc1ccc(C2CC(=O)Nc3sc(=N)c4c(N)c(C#N)c(N)nc4c32)cc1OC (stereo unspecified),-12.6%,-3.5,-4.7,-32.8,4.2,
COC(CNC(=O)c1ccc(CS(=O)(=O)c2c(Cl)cccc2Cl)o1)OC,.,.,-4.4,.,-0.5,

# The list goes on; it opens with the four that closed the last part.
SMILES,Mtb growth,Arbovirus inh,Mtb betalactam,YopH inh,RecA splice inh,others
Cc1cnc(C(=O)NC2CCSc3ccccc32)cn1 (stereo unspecified),.,.,-4.6,.,-9.5,
Cc1cc(OCC(=O)N2CCc3ccccc3C2)c(C)cc1Br,.,.,6.7,.,18.2,
COc1ccc(C2CC(=O)Nc3sc(=N)c4c(N)c(C#N)c(N)nc4c32)cc1OC (stereo unspecified),-12.6%,-3.5,-4.7,-32.8,4.2,
COC(CNC(=O)c1ccc(CS(=O)(=O)c2c(Cl)cccc2Cl)o1)OC,.,.,-4.4,.,-0.5,
COc1ccc(Oc2cc(Cl)nc(N)n2)cc1,10.9%,21.7,-0.2,.,-1.5,
O=C(OCc1nnc(-c2ccccc2)o1)c1ccccc1,36.9%,-0.8,-11.7,.,-1.9,
COc1ccc(C2CC(C(F)(F)F)n3nc(C(=O)N(C)Cc4cn(C)nc4C)c(Cl)c3N2)cc1 (stereo unspecified),12.1%,-0.8,9.4,-14.9,-6.3,
Cc1ccccc1OCC(=O)NNC(=S)NC(=O)c1ccco1,?,-30.3,?,-18.8,1.7,
CC(=O)c1cc(NC(=O)c2cccc(C(F)(F)F)c2)c(=O)oc1/C=C/N(C)C,15.9%,-5.6,9.0,-21.3,-4.5,
CCOc1ccc(C2c3c(oc4cc(C)c(C)cc4c3=O)C(=O)N2CCCN(C)C)cc1OC (stereo unspecified),-2.4%,6.3,-3.6,-30.9,1.1,Arbovirus inh repeat=-0.5
CCOc1ccc(NC(=O)CN(C)C(=O)c2cc([N+](=O)[O-])ccc2N2CCOCC2)cc1OCC,.,.,-10.9,.,0.3,
Cc1ccc(NC(=S)Nc2cccnc2)c(S(=O)(=O)N2CCCCC2)c1,3.3%,-1.8,-5.4,.,1.5,
COc1ccc(NC(=O)c2ccc3c(c2)CCN3S(=O)(=O)c2ccccc2)cc1,.,.,16.8,.,9.3,
O=C(CSc1ncccn1)N/N=C/c1cccs1,-8.8%,2.7,-2.2,-35.8,0.5,

# Screening data from PubChem.

# Only part of the results is shown; the hit share may differ from the screen's.
